Vaccinia stage: blocks a specific stage of Vaccinia orthopoxvirus infection | Vaccinia-infected cells, mCherry/Venus stage reporter fluorescence; active compounds read low; some inactives read as strong as hits | activity change (mCherry), % (test concentration not listed) | 89,000 compounds, 0.01% hits | AID 1053133;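 active = mCherry past -33% and 40 or more points under the early reporter, replicates agreeing; inconclusive = past -33% without that gap or agreement; tested in A549 cells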;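 note: scaled between vehicle wells and reference inhibitor wells; 23 nL library stock went into each well; one replicate is shown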
Vaccinia stage Venus: recorded beside Vaccinia stage, whose call it bears; activity change (Venus), %; measured here: Venus reporter, other viral stage;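 negative = less Venus signal; first of two replicates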
Active calls of the source: *; ? = inconclusive; . = not tested or not shown; & = joins results of further samples.

SMILES | Vaccinia stage | Vaccinia stage Venus
C[C@@H]1CN([C@@H](C)CO)C(=O)c2cc(NS(=O)(=O)c3ccc(Cl)cc3)ccc2O[C@@H]1CN(C)Cc1ccccc1 | -22 | -11
CCNC(=O)[C@H]1[C@H](CO)[C@H]2Cn3c(ccc(C4=CCCC4)c3=O)[C@@H]1N2Cc1cccnc1 | -1 | 11
CCNC(=O)C[C@H]1CC[C@H]2[C@H](COc3ccc(NC(=O)Nc4ccccc4C)cc3C(=O)N2C)O1 | 9 | 5
Cc1ccc(S(=O)(=O)N[C@H]2C=C[C@H](CC(=O)O)O[C@@H]2CO)cc1 | 13 | 13
COC(=O)C[C@@H]1CC[C@@H]2[C@@H](COc3ccc(NC(=O)Cc4cccs4)cc3C(=O)N2C)O1 | 3 | 15
C[C@H]1CN([C@@H](C)CO)C(=O)Cc2cc(NC(=O)CCN3CCOCC3)ccc2O[C@@H]1CN(C)Cc1ccc(Cl)c(Cl)c1 | -16 | -12
CNC[C@H]1OCCCC[C@H](C)Oc2ccc(NS(=O)(=O)c3cn(C)cn3)cc2C(=O)N([C@@H](C)CO)C[C@@H]1C | 27 | 20
C[C@H]1CN([C@@H](C)CO)C(=O)c2cc(C#CCN(C)C)cnc2O[C@@H]1CN(C)C(=O)NC1CCCC1 | 10 | -3
C[C@H](CO)N1C[C@H](C)[C@H](CN(C)Cc2ccc(C(=O)O)cc2)Oc2ccc(NS(=O)(=O)c3ccc(Cl)cc3)cc2CC1=O | 10 | 5
CC(C)NC(=O)N(C)C[C@@H]1Oc2ccc(NS(=O)(=O)c3ccccc3)cc2C(=O)N([C@@H](C)CO)C[C@H]1C | 9 | 1
COc1ccc(S(=O)(=O)N(C)C[C@H]2OCCCC[C@H](C)Oc3ccc(NC(=O)c4ccccc4)cc3C(=O)N([C@H](C)CO)C[C@H]2C)cc1 | -11 | 1
C[C@@H]1CCCCO[C@@H](CN(C)Cc2ccccc2)[C@H](C)CN([C@@H](C)CO)C(=O)c2cc(NS(=O)(=O)c3ccc(F)cc3)ccc2O1 | ? | .
C[C@H](O)C#Cc1cnc2c(c1)C(=O)N([C@H](C)CO)C[C@@H](C)[C@@H](CN(C)C(=O)CN1CCOCC1)O2 | 15 | 20
COc1cccc(S(=O)(=O)N2CCCCN3[C@H](CO)[C@H](c4ccc(C#CCC(C)C)cc4)[C@H]3C2)c1 | ? | .
C[C@H](CO)N1C[C@H](C)[C@H](CN(C)C(=O)Nc2ccccc2)Oc2ncc(-c3cccc(C(F)(F)F)c3)cc2C1=O | ? | .
CO[C@@H]1CN(C)C(=O)c2ccc(NC(=O)Nc3c(C)noc3C)cc2OC[C@@H](C)N(C)C[C@@H]1C | 8 | 8
C[C@H](CO)N1C[C@H](C)[C@@H](CN(C)C(=O)Nc2ccnc(N3CCOCC3)c2)OCc2cnnn2CCCC1=O | -7&5 | -1&-1
CCO[C@@H]1OC(C(=O)N2CCN(Cc3ccccc3)CC2)=C[C@H](c2ccccc2)[C@H]1CCCO | -5 | -1
CC(=O)N1[C@@H]2CN(S(=O)(=O)c3ccccc3)c3ccccc3[C@@H]2[C@@H]1CO | -28 | -8
O=C(Nc1cccc(F)c1)N1CC(=O)N2[C@@H](CO)[C@H](c3ccc(C#CC4CC4)cc3)[C@@H]2C1 | -8 | -15
C[C@@H]1CN([C@@H](C)CO)C(=O)c2cccc(NS(=O)(=O)c3cccs3)c2O[C@H]1CN(C)Cc1ccc(C(F)(F)F)cc1 | 8 | 14
O=C(C[C@@H]1CC[C@H]2[C@@H](COC[C@H](O)CN2C(=O)c2ccncc2)O1)NCc1cc(F)cc(F)c1 | 9 | 8
C[C@H](CO)N1C[C@H](C)[C@H](CN(C)C(=O)c2ccccn2)Oc2ncc(C3=CCCC3)cc2C1=O | -6 | -8
CO[C@@H]1CN(C)C(=O)c2ccc(NC(C)=O)cc2OC[C@@H](C)N(CCC(F)(F)F)C[C@@H]1C | 2 | 4
CNC[C@H]1Oc2cc(-c3ccc(C(=O)N(C)C)cc3)ccc2S(=O)(=O)N([C@@H](C)CO)C[C@@H]1C | 4 | 1

Continued (3 carried over from the part before).
SMILES | Vaccinia stage | Vaccinia stage Venus
C[C@H](CO)N1C[C@H](C)[C@H](CN(C)C(=O)c2ccccn2)Oc2ncc(C3=CCCC3)cc2C1=O | -6 | -8
CO[C@@H]1CN(C)C(=O)c2ccc(NC(C)=O)cc2OC[C@@H](C)N(CCC(F)(F)F)C[C@@H]1C | 2 | 4
CNC[C@H]1Oc2cc(-c3ccc(C(=O)N(C)C)cc3)ccc2S(=O)(=O)N([C@@H](C)CO)C[C@@H]1C | 4 | 1
C[C@@H]1CN([C@@H](C)CO)C(=O)CCCn2nncc2CO[C@@H]1CN(C)C(=O)C1CC1 | 20 | 22
C[C@H](CO)N1C[C@H](C)[C@H](CN(C)C(=O)Nc2ccc(N3CCCCC3)cc2)OCc2cn(nn2)CCCC1=O | 7 | 14
COc1ccc(S(=O)(=O)Nc2ccc3c(c2)CC(=O)N([C@@H](C)CO)C[C@@H](C)[C@H](CN(C)S(=O)(=O)c2ccc(Cl)cc2)O3)cc1 | -18 | -17
COCCNC(=O)[C@@H]1[C@@H](CO)[C@@H]2Cn3c(ccc(-c4ccccc4F)c3=O)[C@@H]2N1C(=O)C1CCC1 | 23 | 10
COCC(=O)N1CC(=O)N2[C@H](CO)[C@H](c3ccc(C#CC4CCCC4)cc3)[C@H]2C1 | -26 | -19
CN1C(=O)c2cc(NS(C)(=O)=O)ccc2OC[C@H]2O[C@H](CC(=O)NCc3ccccc3)CC[C@H]21 | 10 | 10
CNC[C@@H]1Oc2ccc(NS(=O)(=O)c3ccc(Cl)cc3)cc2CC(=O)N([C@H](C)CO)C[C@@H]1C | 2 | -1
C[C@H]1CN([C@@H](C)CO)C(=O)Cc2cc(NC(=O)Cn3cnnn3)ccc2O[C@H]1CN(C)S(=O)(=O)c1cccs1 | 20 | 8
C[C@@H]1CN([C@H](C)CO)S(=O)(=O)c2ccc(-c3ccncc3)cc2O[C@H]1CN(C)C(=O)Nc1ccc(C(F)(F)F)cc1 | -18 | -9
Cc1cccc(-c2ccc(C3[C@@H]4CN(C(=O)Cc5ccncc5)C[C@H]3N4)cc2)c1 (some centres undefined) | -16 | -8
CC(C)C(=O)Nc1ccc2c(c1)C(=O)N(C)[C@@H]1CC[C@H](CC(=O)NC3CCCC3)O[C@H]1CO2 | 9 | 10
C[C@H]1CN([C@@H](C)CO)C(=O)Cc2cc(NC(=O)Cn3cnnn3)ccc2O[C@@H]1CN(C)S(=O)(=O)c1ccc(F)cc1 | 30 | 19
COCC#Cc1ccc([C@@H]2[C@@H](CO)N3C(=O)CN(C(=O)C4CCCC4)C[C@H]23)cc1 | 0 | -2
C[C@H](CO)N1C[C@H](C)[C@H](CN(C)C(=O)C2CCCCC2)OCCCC[C@H](C)Oc2ccc(NS(=O)(=O)c3ccc(F)cc3)cc2C1=O | ? | .
C[C@@H]1CCCCO[C@@H](CN(C)C(=O)c2ccccc2)[C@@H](C)CN([C@@H](C)CO)C(=O)c2cc(NS(=O)(=O)c3ccc(F)cc3)ccc2O1 | -12 | -13
CCCNC(=O)Nc1ccc2c(c1)C(=O)N(C)C[C@H](OC)[C@@H](C)CN(CCC)[C@H](C)CO2 | 21 | 16
CN(C)C(=O)c1ccc(-c2ccc([C@@H]3[C@H](C#N)N(C(=O)Cc4ccccn4)[C@H]3CO)cc2)cc1 | 13 | 0
CCc1nc(N2[C@@H](C#N)[C@H](c3ccccc3-c3ccc(F)cc3)[C@@H]2CO)sc1C | -12 | -4
C[C@@H]1CCCCO[C@H](CN(C)Cc2ccccc2)[C@H](C)CN([C@H](C)CO)C(=O)c2cc(NC(=O)CCC(F)(F)F)ccc2O1 | -30 | -19
CC(C)NC(=O)Nc1ccc2c(c1)C(=O)N([C@H](C)CO)C[C@@H](C)[C@H](CN(C)S(=O)(=O)c1cn(C)cn1)OCCCC[C@@H](C)O2 | 19 | 17
CCCNC(=O)[C@@H]1[C@@H](CO)[C@@H]2Cn3c(ccc(-c4ccc(F)cc4)c3=O)[C@@H]2N1CC1CC1 | 11 | 15
CN(C)C(=O)c1cccc(-c2ccc(C3[C@H]4CNC[C@@H]3N4C(=O)NC3CCCC3)cc2)c1 (some centres undefined) | 1&8 | 9&5
COc1ccc(-c2ccc([C@H]3[C@H]4CN(C(=O)C5CCCC5)CC(=O)N4[C@H]3CO)cc2)cc1 | ? | .
CO[C@@H]1CN(C)C(=O)c2cc(NC(=O)C3CCC3)ccc2OC[C@@H](C)N(C(=O)CN(C)C)C[C@@H]1C | -1 | 4
C[C@H]1CN([C@@H](C)CO)C(=O)CCCn2cc(nn2)CO[C@H]1CN(C)C(=O)CCCN(C)C | 1 | 4
Further results:
SMILES | Vaccinia stage | Vaccinia stage Venus
Cc1noc(C)c1NC(=O)Nc1cccc2c1O[C@@H](CN(C)Cc1ccc(C(=O)O)cc1)[C@@H](C)CN([C@@H](C)CO)C2=O | 6 | 2
CNC[C@H]1Oc2cc(-c3cncnc3)ccc2S(=O)(=O)N([C@H](C)CO)C[C@@H]1C | 1 | 16
C[C@@H]1CN([C@H](C)CO)S(=O)(=O)c2ccc(C#C[C@@H](C)O)cc2O[C@@H]1CN(C)C(=O)CN(C)C | 25 | 20
C/C=C/c1ccc([C@H]2[C@@H](CNC(=O)C3CC3)N(C(=O)NCCC)[C@H]2CO)cc1 | 7 | 16
COc1ccccc1-c1cccc(-c2nc(C(=O)NCc3ccncc3)cc3c2[C@H](CCO)N([S@@](=O)C(C)(C)C)C3)c1 | -26 | -8
C[C@@H]1CN([C@@H](C)CO)C(=O)c2cccc(NC(=O)c3ccc(-c4nccs4)cc3)c2O[C@@H]1CN(C)CC1CC1 | -6 | 4
COc1ccc(NC(=O)N(C)C[C@@H]2OCCCC[C@@H](C)Oc3ccc(NC(=O)Nc4ccc(C(F)(F)F)cc4)cc3C(=O)N([C@H](C)CO)C[C@@H]2C)cc1 | 15 | 21
COc1cccc(S(=O)(=O)N2C[C@H](O)COC[C@@H]3O[C@@H](CC(=O)N4CCCCC4)CC[C@H]32)c1 | 8 | 3
Cc1ccc(S(=O)(=O)Nc2ccc3c(c2)CC(=O)N([C@H](C)CO)C[C@H](C)[C@@H](CN(C)Cc2ccc(C(=O)O)cc2)O3)cc1 | -6 | 1
C[C@H](CO)N1C[C@H](C)[C@@H](CN(C)S(=O)(=O)c2ccc(F)cc2)Oc2ncc(-c3ccncc3)cc2C1=O | -5 | -3
C[C@@H]1CN([C@@H](C)CO)C(=O)c2cc(NC(=O)CCC(F)(F)F)ccc2O[C@@H]1CN(C)CC1CC1 | 15 | 18
CCCN1C[C@@H](C)[C@@H](OC)CN(C)C(=O)c2cc(NC(=O)C3CC3)ccc2OC[C@H]1C | 6 | 9
CN(C)CC(=O)N1CC2(C1)[C@H](c1ccccc1)[C@H](CO)N2C(=O)C1CCCCC1 | 0 | 5
O=C(CC1CC1)N1CC(=O)N2[C@@H](CO)[C@H](c3ccc(-c4ccccc4)cc3)[C@@H]2C1 | 38 | 25
CC(=O)N1[C@@H]2c3cccc(=O)n3C[C@@H]2[C@@H](CO)[C@@H]1C(=O)NCc1ccc(F)cc1 | 1 | 9
Cc1noc(C)c1NC(=O)N(C)C[C@@H]1Oc2c(cccc2N(C)C)C(=O)N([C@H](C)CO)C[C@H]1C | 2 | -6
COc1ccc(NC(=O)Nc2ccc3c(c2)CC(=O)N([C@@H](C)CO)C[C@@H](C)[C@H](CN(C)Cc2ccccc2)O3)cc1 | ? | .
C/C=C/c1cnc2c(c1)C(=O)N([C@@H](C)CO)C[C@H](C)[C@@H](CN(C)C(=O)Nc1ccccc1F)O2 | 6 | 4
O=C(N[C@@H]1CC[C@H](CCNS(=O)(=O)c2ccc(Cl)cc2)O[C@@H]1CO)c1ccccn1 | -8 | -5
C[C@@H]1CN([C@H](C)CO)C(=O)c2cc(NS(C)(=O)=O)ccc2O[C@@H](C)CCCCO[C@H]1CN(C)Cc1ccc(C(=O)O)cc1 | 12 | 5
COCC(=O)N(C)C[C@H]1Oc2ncc(C#CCC3CCCC3)cc2C(=O)N([C@@H](C)CO)C[C@@H]1C | 8 | 4
COC(=O)C[C@H]1C[C@@H]2c3cc(NC(=O)c4ccc5c(c4)OCO5)ccc3O[C@@H]2[C@@H](CO)O1 | -11 | -7
C[C@H](CO)N1C[C@H](C)[C@@H](CN(C)C(=O)Nc2ccc(F)cc2)Oc2ccc(NC(=O)Nc3cccc4ccccc34)cc2C1=O | 14 | 9
COc1ccc(-c2ccc([C@H]3[C@H](CO)N4CCCCN(C(=O)c5ccc(F)cc5)C[C@@H]34)cc2)cc1 | -17 | -25
CC(=O)N(C)C[C@@H]1Oc2cc(C#CC3CCCCC3)ccc2S(=O)(=O)N([C@H](C)CO)C[C@@H]1C | ? | .
CC(C)NC(=O)N(C)C[C@@H]1Oc2cc(-c3ccncc3)ccc2S(=O)(=O)N([C@@H](C)CO)C[C@@H]1C | 23 | 10

In a second layout: results already given.
compound: COc1ccc(NC(=O)N(C)C[C@@H]2OCCCC[C@@H](C)Oc3ccc(NC(=O)Nc4ccc(C(F)(F)F)cc4)cc3C(=O)N([C@H](C)CO)C[C@@H]2C)cc1
- Vaccinia stage: 15
- Vaccinia stage Venus: 21
compound: COc1cccc(S(=O)(=O)N2C[C@H](O)COC[C@@H]3O[C@@H](CC(=O)N4CCCCC4)CC[C@H]32)c1
- Vaccinia stage: 8
- Vaccinia stage Venus: 3
compound: Cc1ccc(S(=O)(=O)Nc2ccc3c(c2)CC(=O)N([C@H](C)CO)C[C@H](C)[C@@H](CN(C)Cc2ccc(C(=O)O)cc2)O3)cc1
- Vaccinia stage: -6
- Vaccinia stage Venus: 1
compound: C[C@H](CO)N1C[C@H](C)[C@@H](CN(C)S(=O)(=O)c2ccc(F)cc2)Oc2ncc(-c3ccncc3)cc2C1=O
- Vaccinia stage: -5
- Vaccinia stage Venus: -3

These rows are one share of the data; the hit share may differ from the screen's.
